Screening results: PubChem, Fisher Drug Discovery Resource Center
NPYLR7 ag – agonists of mosquito NPYLR7 receptor, primary screen, cell-based, Aedes aegypti, calcium fluorescence, mosquito biting behavior; HEK293T NPYLR7/Galpha15, GCaMP6s calcium fluorescence; activation, % at 10 µM; 270,000 compounds, 0.15% hits; in the data active = activation above about 40%;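 also: 0% = vehicle and 100% = reference agonist at the receptor; some compounds past the cut are filed as inactive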
NPYLR7 ag max-min – second read-out of NPYLR7 ag, no call of its own (marks repeat the call); activation, %; measured here: Max-Min RFU normalised activation; some inactives read as strong as hits;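 span of the calcium signal over five minutes; 0% = vehicle and 100% = native peptide agonist; compound fluorescence can raise it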
An asterisk follows results filed as active; & = joins results of further samples.

SMILES	NPYLR7 ag	NPYLR7 ag max-min
CC(C)(C)c1cc(C(C)(C)C)c(NC(=O)c2c[nH]c3ccccc3c2=O)cc1O	6	0
CCNC(=O)C1CN(C(=O)C(C)Oc2ccccc2C(F)(F)F)C1 (stereo not drawn)	0	2
Cc1ccnc(SCCn2c(N3CC(C)OC(C)C3)nc3c2c(=O)n(C)c(=O)n3C)n1 (stereo not drawn)	13	9
Cn1cc(S(=O)(=O)N(Cc2ccccc2)Cc2ccccc2)c(=O)n(C)c1=O	-2	-2
Cc1nc2ccccn2c1C1C(=O)NCCN1C(=O)Nc1cccc(Cl)c1 (stereo not drawn)	-3	-8
Cn1cc(C(CC(=O)N2CCN(Cc3ccc4c(c3)OCO4)CC2)c2ccc(Cl)cc2)c2ccccc21 (stereo not drawn)	6	15
COC(=O)c1ccc(/C=C2\SC(=S)N(C(Cc3ccccc3)C(=O)O)C2=O)cc1 (stereo not drawn)	-9	-15
COc1ccc(C(=O)Nc2ccc(-n3nc(OC)nc3-c3ccc(Cl)c(Cl)c3)cc2)cc1	-7	-6
CN(Cc1csc(-c2ccoc2)n1)C1CCS(=O)(=O)CC1	-8	333
CN(CC(F)F)C(=O)NC1CCc2cc(Br)ccc21 (stereo not drawn)	4	3
CCN(CC)C(=O)c1sc(NC(=O)c2ccc(C)o2)c(C#N)c1C	-1	-7
COc1cn(CC(N)=O)c(CSc2nccc(C)n2)cc1=O	-4	-9
CCc1nc2ccc(C(=O)NCCNC(C)=O)cn2c1N(CCC(C)C)CCN(C)C	-2	-9
COc1ccc(N2C(=O)CSC2c2ccc(NC(=O)c3ccco3)cc2)c(OC)c1 (stereo not drawn)	5	13
CC1CCCCN1Cc1ccccc1CNC(=O)CNC(=O)Cc1ccccc1 (stereo not drawn)	3	3
COc1ccc(C(=O)N2CCN(c3ccc4c(c3)OCO4)C(=O)C2C)cc1 (stereo not drawn)	25	26
CC(C)C(NC(=O)c1ccc(N2CC(=O)NC2=O)cc1)c1nccn1C (stereo not drawn)	0	0
COCc1ccc(CN2CCCC(N(C)Cc3ccccc3)C2)o1 (stereo not drawn)	5	2
COC(=O)c1cc(NC(=O)C2=NCC(=O)N(c3ccccc3)N2)ccc1F	-3	-5
Cc1ccc(-n2ncc3c(=O)n(NC(=O)Cc4ccc([N+](=O)[O-])cc4)cnc32)cc1	8	6
CC(C)C(NC(=O)c1cccs1)C(=O)N(C)c1cnn(C)c1 (stereo not drawn)	-5	-6
COc1ccc(C2(C(=O)N3CCc4[nH]nc(-c5ccccc5)c4C3)CC2)cc1	-1	-6
CC(=O)Nc1cccc2c1CCN(c1snc(Cl)c1C#N)C2	-20&-1	-20&0
CN(Cc1nc2scc(-c3ccco3)c2c(=O)[nH]1)C1CCCCC1	9	8

No new results follow: 24 of the compounds above.
SMILES	NPYLR7 ag	NPYLR7 ag max-min
CC(C)(C)c1cc(C(C)(C)C)c(NC(=O)c2c[nH]c3ccccc3c2=O)cc1O	6	0
CCNC(=O)C1CN(C(=O)C(C)Oc2ccccc2C(F)(F)F)C1 (stereo not drawn)	0	2
Cc1ccnc(SCCn2c(N3CC(C)OC(C)C3)nc3c2c(=O)n(C)c(=O)n3C)n1 (stereo not drawn)	13	9
Cn1cc(S(=O)(=O)N(Cc2ccccc2)Cc2ccccc2)c(=O)n(C)c1=O	-2	-2
Cc1nc2ccccn2c1C1C(=O)NCCN1C(=O)Nc1cccc(Cl)c1 (stereo not drawn)	-3	-8
Cn1cc(C(CC(=O)N2CCN(Cc3ccc4c(c3)OCO4)CC2)c2ccc(Cl)cc2)c2ccccc21 (stereo not drawn)	6	15
COC(=O)c1ccc(/C=C2\SC(=S)N(C(Cc3ccccc3)C(=O)O)C2=O)cc1 (stereo not drawn)	-9	-15
COc1ccc(C(=O)Nc2ccc(-n3nc(OC)nc3-c3ccc(Cl)c(Cl)c3)cc2)cc1	-7	-6
CN(Cc1csc(-c2ccoc2)n1)C1CCS(=O)(=O)CC1	-8	333
CN(CC(F)F)C(=O)NC1CCc2cc(Br)ccc21 (stereo not drawn)	4	3
CCN(CC)C(=O)c1sc(NC(=O)c2ccc(C)o2)c(C#N)c1C	-1	-7
COc1cn(CC(N)=O)c(CSc2nccc(C)n2)cc1=O	-4	-9
CCc1nc2ccc(C(=O)NCCNC(C)=O)cn2c1N(CCC(C)C)CCN(C)C	-2	-9
COc1ccc(N2C(=O)CSC2c2ccc(NC(=O)c3ccco3)cc2)c(OC)c1 (stereo not drawn)	5	13
CC1CCCCN1Cc1ccccc1CNC(=O)CNC(=O)Cc1ccccc1 (stereo not drawn)	3	3
COc1ccc(C(=O)N2CCN(c3ccc4c(c3)OCO4)C(=O)C2C)cc1 (stereo not drawn)	25	26
CC(C)C(NC(=O)c1ccc(N2CC(=O)NC2=O)cc1)c1nccn1C (stereo not drawn)	0	0
COCc1ccc(CN2CCCC(N(C)Cc3ccccc3)C2)o1 (stereo not drawn)	5	2
COC(=O)c1cc(NC(=O)C2=NCC(=O)N(c3ccccc3)N2)ccc1F	-3	-5
Cc1ccc(-n2ncc3c(=O)n(NC(=O)Cc4ccc([N+](=O)[O-])cc4)cnc32)cc1	8	6
CC(C)C(NC(=O)c1cccs1)C(=O)N(C)c1cnn(C)c1 (stereo not drawn)	-5	-6
COc1ccc(C2(C(=O)N3CCc4[nH]nc(-c5ccccc5)c4C3)CC2)cc1	-1	-6
CC(=O)Nc1cccc2c1CCN(c1snc(Cl)c1C#N)C2	-20&-1	-20&0
CN(Cc1nc2scc(-c3ccco3)c2c(=O)[nH]1)C1CCCCC1	9	8

Continuation.
SMILES	NPYLR7 ag	NPYLR7 ag max-min
COC(=O)c1ccc(/C=N\NC(=O)c2cc(-c3ccccc3)nc3ccccc23)cc1	15	13
CN(Cc1ccccc1)c1cc(-c2ccccc2)nc(SCc2ccc(C(=O)NCC3CCCO3)cc2)n1 (stereo not drawn)	1	6
C#CCNC(=O)CN1CC2=C(C1=O)C(c1ccc(C(C)(C)C)cc1)NC(=O)N2C (stereo not drawn)	1	9
Cc1cccc(-c2nnc(SC(C(=O)NC3CC3)c3ccc(F)cc3)n2C)c1 (stereo not drawn)	1	-3
O=C(CSc1nnc(C2CC2)n1C1CC1)N1CCc2sccc2C1	0	1
O=C(NC1CC1)C1CCN(C2CCN(Cc3cc4ccccc4[nH]3)CC2)CC1	2&10	2&6
Oc1c(Cl)cc(Cl)cc1Sc1cc(Cl)cc(Cl)c1O	-6&-5	-11&-9
COc1ccc(N2C(=O)CC3CS(=O)(=O)CC32)cc1Cl (stereo not drawn)	0	17
Cc1ccc2cc(CCNC(=O)COc3ccccc3)c(=O)[nH]c2c1C	2	-1
CCOC(=O)C1CCN(C(=O)c2ccc(CSc3nc(N4CCN(C(C)=O)CC4)cc(C(C)(C)C)n3)cc2)CC1	6	10
CCOC(=O)c1nc2cc(Cl)c(Cl)cc2nc1N1CCCN(S(=O)(=O)c2c(C)c(C)c(C)c(C)c2C)CC1	5	1
CC(=O)Nc1ccc(S(=O)(=O)NCCc2sc3nc(-c4ccc(C)cc4)nn3c2C)cc1	3	1
CC1c2ccsc2CCN1CC(=O)NC(=O)NCc1cccs1 (stereo not drawn)	-7	-10
O=C(/C=C/c1cccc2cccnc12)NCCc1cccs1	1	2
Cc1ccccc1NC(=O)Nc1ccc(-n2nc(OCc3ccc(F)cc3)nc2-c2ccccc2F)cc1	15	0
COc1cn(C)c(C(=O)Nc2ccccc2C(N)=O)cc1=O	-5	-6
COc1cccc(COC2CN(CC(C)C)C(=O)CN(C(=O)C3CC=CCC3)C2)c1 (stereo not drawn)	-3	-11
C=c1c(C#N)c2[nH]c(N)c(C#N)c(C)c-2/c1=C\c1ccc(O)cc1	21	20
Cc1oc(-c2ccc(Cl)cc2)nc1CN(C)Cc1ccc2nsnc2c1	13	2
Cc1ccc(Cn2c(=O)c3c(nc4n(CCCO)c(C)c(C)n34)n(C)c2=O)cc1	21	17
Nc1nc(SCC(=O)NCC2CCCO2)[nH]c(=O)c1NC(=O)c1ccc(Cl)cc1 (stereo not drawn)	0	0
CNC(=O)C1CN(C(=O)c2cccc(C#N)c2)c2ccccc2O1 (stereo not drawn)	0	-2
CCCc1nc(C)cc(N2CCC3(CCCN(C)C3=O)C2)n1 (stereo not drawn)	0	0
COc1ccc(C(=O)N2CCC3(CC2)C(=O)N(CC(=O)NCc2ccco2)CN3c2ccccc2)c(OC)c1	-3	-1
Cc1ccc(S(=O)(=O)NC2(C(F)(F)F)NC(=O)N(Cc3ccccc3)C2=O)cc1 (stereo not drawn)	-5	-14
CCc1nnsc1C(=O)N1C[C@@H]2[C@@H]3CC[C@@H](C3)[C@@H]2C1	10	7
O=C(C1CCN(Cc2nc(C3CC3)no2)CC1)N1CCCCC1	1	10
CC1CN(c2cc(Oc3cccc(Cl)c3)ncn2)CCN1 (stereo not drawn)	13	14
COc1ccc(-c2cc(CN3CCN(S(=O)(=O)c4cc(C)ccc4C)CC3)on2)cc1	-4	-5
CC(C)n1c(CCC(=O)O)ccc1-c1ccc(Cl)cc1	-11	-14
COc1cccc(OC)c1C(=O)Nc1c2c(nn1C(C)(C)C)CSC2	-1	-1
CCn1ncnc1CN1CCC(O)(c2ccc3nc(C)ccc3c2)CC1	-3	-3
O=C(O)COc1c(Cl)cc(C=C2C(=O)NC(=S)NC2=O)cc1Cl	-15	-18
COc1ccc(OCc2nc(C#N)c(N3CCCC3)o2)cc1	4	0
COC(=O)c1ccc(N2C(=O)C(C)Oc3ccc(-c4ccccc4)cc32)cc1 (stereo not drawn)	-4	-5
COc1cc2c(cc1OC)C(c1c(F)cccc1Cl)N(C(=O)c1ccc(-c3ccc(F)c(F)c3)s1)CC2 (stereo not drawn)	11	21
O=C(/C=C/c1ccccc1Cl)N1CCC(c2nc(-c3ccc(C(F)(F)F)cc3)no2)CC1	27	20
CC(C)c1ccccc1OC1CC2CCC(C1)N2C(=O)c1ccc(CSc2cccc3ccccc23)cc1 (stereo not drawn)	11	0
Cc1ccc(-n2ncc3c(=O)n(NC(=O)c4cc5ccccc5o4)cnc32)cc1C	3	1

Some of the compounds tested (hit frequency here may not be typical).
